# Screening data (PubChem BioAssay)
# VDR inhibitor = vitamin D3 receptor (human) inhibition. VDR-SRC2-3 peptide fluorescence polarization, 2 h. Potency, µM, without a hit: max response, negative = inhibition, actives largely listed as inhibitors. 400,000 compounds, 0.93% hits; active means well fitted inhibition curve with a large enough effect; inconclusive means small, poorly fitted or top-dose-only effect, or another doubt; inactive means no such curve, though single readings can be large or run the other way; further: series mostly up to about 120 µM
# Target sequence (P11473 whole entry, looked up): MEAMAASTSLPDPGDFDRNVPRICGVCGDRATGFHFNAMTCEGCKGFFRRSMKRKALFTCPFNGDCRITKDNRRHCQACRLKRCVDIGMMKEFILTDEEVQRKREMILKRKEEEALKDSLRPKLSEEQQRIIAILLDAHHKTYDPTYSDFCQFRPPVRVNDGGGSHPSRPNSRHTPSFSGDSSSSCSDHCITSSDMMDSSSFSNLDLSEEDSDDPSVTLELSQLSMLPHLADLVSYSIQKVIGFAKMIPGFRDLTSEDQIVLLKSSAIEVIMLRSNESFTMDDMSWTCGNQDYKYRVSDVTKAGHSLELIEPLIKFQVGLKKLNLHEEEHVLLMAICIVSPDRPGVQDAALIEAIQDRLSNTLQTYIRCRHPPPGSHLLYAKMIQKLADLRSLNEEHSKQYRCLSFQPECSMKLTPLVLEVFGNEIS
#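 Fluorescence polarization assay of small-molecule disruption of VDR binding to coregulator peptide SRC2-3. Compounds and controls pin-transferred, then read after 2 h incubation at ambient room temperature.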
# Starred values were filed as active, the others as inactive; ? = inconclusive; & = joins results of further samples; [ ] = dose if it differs, or a comment. On the % scale 0 is the no-effect control and ±100 the full control effect; potency means the concentration at half of the fitted maximal effect. This is a subset, so the mix of outcomes need not match the whole.
SMILES,VDR inhibitor
CCN(CC(=O)Nc1c(F)cccc1F)C(=O)C1CCN(S(=O)(=O)c2ccc(F)cc2)CC1,-3%
CC(=O)c1cccc(NC(=O)NC2CCCCC2)c1,-3%
CCN(C(=O)C(C)OC(=O)CCCNC(=O)c1ccc(Cl)cc1)c1ccccc1 (stereo not drawn),11%
CSCC[C@H](NC(=O)OC(C)(C)C)c1nnc(SCC(=O)N(C)C)o1,-11%
COC(=O)CN(c1ccc(C)cc1)S(=O)(=O)c1ccc(F)cc1,10%
CCCCN1CC(C(=O)NCc2ccc(C)cc2)CC1=O (stereo not drawn),-8%
O=C(CNS(=O)(=O)c1ccc(Br)s1)NCCc1ccc(Cl)cc1,-6%
O=C(O)C1=C[C@H](c2ccc(Br)cc2)C[C@H](OCCCCO)O1,-8%
Cc1ccsc1CN(C(=O)c1ccccc1)C1CCS(=O)(=O)C1 (stereo not drawn),-18%
CCOC(=O)C1CCC(CN(Cc2ccc(OC)cc2)S(=O)(=O)c2ccc(F)c(C(=O)Nc3cc(Cl)ccc3OC)c2)CC1 (stereo not drawn),2%
Cc1sc2ncnc(N3CCC(C(=O)NNC(=O)COc4ccc(Cl)cc4)CC3)c2c1C,-21%
CCCN1CCc2c(sc(NC(=O)c3ccc(S(=O)(=O)N(C)c4ccccc4)cc3)c2C(=O)NC)C1,31%[activator]
O=C(COC(=O)/C=C/c1ccc(C(F)(F)F)cc1)NC1CCS(=O)(=O)C1 (stereo not drawn),-2%
Cc1ccc(NC(=O)Nc2nnc(SCC(=O)N3CCCCC3)s2)cc1,8%
Cc1nc2ncnn2c(C)c1Cc1ccccc1Cl,9%
COc1ccc(NC(=O)N2CCCC(CCC(=O)N(C)CCc3ccccn3)C2)cc1 (stereo not drawn),12%
COc1ccc(CNC(=O)c2cc3c(-c4ccccc4F)nn(C)c3s2)c(OC)c1,-5%
Cc1cccc(C(=O)OCC(=O)Nc2ccc(F)cc2)c1,-15%
Cc1ncc(CO)c(CNc2ccc(Oc3ccccc3)cc2)c1O,13%
COc1ccccc1NC(=O)NNC(=O)c1ccncc1,10%
Cc1nn(-c2nnc(C)c(=O)[nH]2)c(C)c1SCC(=O)Nc1ccc(F)cc1,0%
COc1ccc2cc(CCNC(=O)c3ccc(S(=O)(=O)N4CCCC4)cc3)c(=O)[nH]c2c1,9%
CCCCC1(C)OC(=O)C(=Cc2ccc(N(CC)CC)cc2)C(=O)O1 (stereo not drawn),?
Cc1ccc(-n2c(SCc3ccc(C#N)cc3)nnc2-c2ccccn2)cc1,1%
CC1(CCC(=O)N2CCCC(Nc3ccc(F)cc3)C2)CC1 (stereo not drawn),-11%

# Next part (7 carried over from the part before).
SMILES,VDR inhibitor
Cc1ncc(CO)c(CNc2ccc(Oc3ccccc3)cc2)c1O,13%
COc1ccccc1NC(=O)NNC(=O)c1ccncc1,10%
Cc1nn(-c2nnc(C)c(=O)[nH]2)c(C)c1SCC(=O)Nc1ccc(F)cc1,0%
COc1ccc2cc(CCNC(=O)c3ccc(S(=O)(=O)N4CCCC4)cc3)c(=O)[nH]c2c1,9%
CCCCC1(C)OC(=O)C(=Cc2ccc(N(CC)CC)cc2)C(=O)O1 (stereo not drawn),?
Cc1ccc(-n2c(SCc3ccc(C#N)cc3)nnc2-c2ccccn2)cc1,1%
CC1(CCC(=O)N2CCCC(Nc3ccc(F)cc3)C2)CC1 (stereo not drawn),-11%
CCN(CC)S(=O)(=O)c1ccc(O)c(C(=O)OCC(=O)NC2CCCC2)c1,-9%
COCCNc1nc(N)c([N+](=O)[O-])c(NCC2CCCO2)n1 (stereo not drawn),-2%
NC/C(=N\O)c1ccc(Cl)cc1Cl,11%
CC(OC(=O)Cn1cnc2ccccc2c1=O)C(=O)N(C)c1ccccc1 (stereo not drawn),-15%
COc1ccc(OC)c(NC(=O)CC2SC(=N)N(c3ccccc3)C2=O)c1 (stereo not drawn),-19%
O=C(OC1CCOC1=O)c1ccc(Cl)c(S(=O)(=O)N2CCCCC2)c1 (stereo not drawn),9%
Cn1c(=O)cc(OCCCC(=O)NCc2ccc(F)cc2Cl)c2ccccc21,-2%
O=C(Nc1ccccc1SCC1CSc2nc3ccccc3c(=O)n21)c1cccc(Cl)c1 (stereo not drawn),5%
Cc1ccc(CCNC(=O)c2ccc(CSc3nc4ccncc4n3Cc3ccc(F)cc3)cc2)cc1,7%
CCn1c(SCC(=O)N2CCN(S(=O)(=O)c3ccccc3)CC2)nnc1-c1cccs1,1%
O=C(Cn1nc2c(cc1=O)CCCC2)NCc1ccccc1Cl,1%
COc1ccc(CN(C)CC(=O)NCC(=O)Nc2c(C)cccc2C)cc1,-3%
CC(C)n1ncc2c(C(=O)Nc3cccc(S(=O)(=O)N(C)C)c3)cc(C3CC3)nc21,7%
Fc1ccc(CO/N=C2\CCCc3nonc32)cc1,1%
Cc1cc(C)n(-c2ccc(S(=O)(=O)N3CCCC3)cc2[N+](=O)[O-])n1,5%
COc1c(O)c(=O)n2c3ccccc3c3ccnc1c32,10%
O=C(NC(=S)N1CCCCC1CO)c1cccs1 (stereo not drawn),?
COc1ccccc1NC(=O)CCc1c(C)[nH]c(=O)c(C#N)c1C,10%
COc1ccc(NC(=O)[C@@H](NS(=O)(=O)c2cccc(Cl)c2)C(C)C)cc1S(=O)(=O)N1CCOCC1,-10%
CC(=O)c1cccc(N(C(=O)CNC(=O)c2ccco2)C(C(=O)NC2CCCC2)c2ccncc2)c1 (stereo not drawn),5%
C=CCc1cccc(/C=N/NC(=O)CCCNc2ccc(C)cc2)c1O,-18%
CSc1nnc2c(n1)OC(c1cccc(O)c1Cl)Nc1ccccc1-2 (stereo not drawn),-2%
O=S(=O)(c1ccccc1F)N1CCN(Cc2cc3c(cc2O)OCO3)CC1,?
O=C(c1csnn1)N1CCC2(CC1)CCN(c1ccccn1)CC2,?
CC(=O)Nc1ccc(S(=O)(=O)N2CCC(N(C)CCC(C)C)CC2)cc1,-11%
# Additional records:
SMILES,VDR inhibitor
CC(=O)C1=C(c2ccccc2)NC(=O)NC1c1ccccc1OCC(=O)Nc1ccccc1 (stereo not drawn),21%
COC(=O)c1sccc1NC(=O)c1c(C)c(-c2cccc(Cl)c2)nc2ccccc12,-14%
O=C(/C=C\c1ccco1)c1ccc(NC(=O)c2ccco2)cc1,-9%
C[C@H]1CN([C@@H](C)CO)C(=O)c2cccc(NC(=O)C3CC3)c2O[C@H]1CN(C)CC1CCCCC1,-6%
Cc1nn(-c2ccc(Cl)cc2)c2sc(C(=O)N3CCN(c4ccccn4)CC3)cc12,-2%
COc1cc2c(cc1OC)-c1cc(Nc3cccc(F)c3)nc(=O)n1CC2,-17%
Cc1ccsc1C1Nc2ccc3ncccc3c2C2=C1C(=O)CC(C)(C)C2 (stereo not drawn),-14%
O=S(=O)(Nc1nc2ccccc2nc1N1CCc2ccccc2C1)c1ccc(Br)cc1,-6%
CN1C(=O)c2cccc3c(S(N)(=O)=O)ccc1c23,34%[activator]
Cn1cc([N+](=O)[O-])c(C(=O)N/N=C\c2c[nH]c3ccccc23)n1,7%
COc1cnn(-c2ccccc2)c(=O)c1OC,8%
Cc1cc(S(=O)(=O)N2CCCOC2CNC(=O)C(=O)NCc2cccs2)ccc1F (stereo not drawn),-21%
Cc1nc(CS(=O)(=O)c2ccc(Cl)cc2)cc(Sc2ccccc2Cl)n1,-15%
COc1ccc(CCN2CC(C(=O)OCC(=O)NC(C)c3cccc(Cl)c3)CC2=O)cc1OC (stereo not drawn),-3%
CN(C)c1ccc(S(=O)(=O)NCC(=O)OCC(=O)c2ccc[nH]2)cc1[N+](=O)[O-],3%
CCn1ncc([N+](=O)[O-])c1C(=O)Nc1ccc(C(=O)N2CCCCC2)cc1,-18%
COc1ccccc1NC(=O)CCc1nnc2ccc(NCc3ccco3)nn12,8%
COc1ccc(-c2oc3ncn(Cc4ccco4)c(=N)c3c2-c2ccc(OC)cc2)cc1,3%
CC(C)NC(=O)CCCn1c(=S)[nH]c2cc3c(cc2c1=O)OCO3,-13%
CCCCC(=O)c1ccc(O)cc1,-5%
CCCCCCCC(=O)NNC(=O)c1c(O)c2ccccc2n(CC)c1=O,-5%
COc1ccc(C(=O)Nc2ccc(N3CCC(C)CC3)cc2)cc1Br,17%
O=c1cc(N2CCCCC2)c(-c2ccccc2)nn1Cc1ccc(Cl)cc1,5%
CCOC(=O)C1CCN(C(=O)COc2ccc(S(=O)(=O)N3CCOCC3)cc2)CC1,-1%
CCOc1ccc2oc(=O)cc(CN3CCOCC3)c2c1,-6%
# Later entries.
SMILES,VDR inhibitor
CC1CCN(S(=O)(=O)c2ccc3c(ccc(=O)n3CC(=O)NCc3ccc(Cl)cc3)c2)CC1,13%
COC(=O)c1cccc(NC(=O)CSc2nc(=O)cc(N)n2-c2ccccc2)c1,-3%
NNC(=O)C(Cc1cnc[nH]1)NC(=O)OCc1ccccc1 (stereo not drawn),-2%
CC(=O)Nc1cccc(NCC(=O)Nc2cc(S(=O)(=O)N3CCCCC3)ccc2Cl)c1,2%
Nc1ccc(C(=O)Nc2ccc3cc(S(=O)(=O)O)ccc3c2)cc1,-11%
O=C(Cn1ncc2c1-c1ccccc1OC2)N1CCN(Cc2ccc3c(c2)OCO3)CC1,-19%
Cc1cc(C(=O)OCC(=O)N2CCOCC2)c(C)n1-c1ccccc1,6%
O=C1CCSc2ccc(Cl)cc2N1Cc1ccc(Cl)cc1,10%
COc1ccc(C2C(C#N)=C(N)Oc3cc(O)ccc32)cc1C (stereo not drawn),-2%
CC(C)(C)NC(=O)NC(=O)COC(=O)CCC1CCCCC1,-8%
CCOc1ccccc1NC(=O)N1CCC(c2nc3ccc(C)cc3[nH]2)CC1,12%
CCCN1CCN(C(c2cc3cc(OCC)ccc3[nH]c2=O)c2nnnn2C2CCCCC2)CC1 (stereo not drawn),-2%
Cc1ccc(-c2cc(C(=O)NCC(c3ccccc3)N(C)C)c3ccccc3n2)o1 (stereo not drawn),-8%
CC(=O)c1nc(N2CCN(S(=O)(=O)c3ccc(C)cc3)CC2)c2ccccc2n1,-11%
O=Cc1ccccc1OCc1ccc2c(c1)OCO2,-22%
COc1ccccc1NS(=O)(=O)c1cc(N)ccc1N1CCOCC1,79µM*
COc1c2c(cc(O)c1C(C)=O)OC(C)(C)C=C2,26%
CSc1ccc(S(=O)(=O)Nc2ccc3c(c2)NC(=O)CC3)cc1,-3%
Cc1ccc(S(=O)(=O)Nc2cc(C(=O)Nc3cc(C)cc(C)c3)ccc2Cl)cc1,5%
CC(NC(=O)CSc1nnc(COc2ccccc2)o1)c1ccccc1 (stereo not drawn),-5%
CSc1nsc(SCC(=O)Nc2cccc(C(=O)O)c2)n1,4%
O=C(NCc1ccccc1Cl)c1ccc2c(c1)ncn2-c1cccc(F)c1,14%
O=C(OCC(=O)N1CCCC1)c1ccc(Cl)nc1,-1%
O=C(N/N=C/c1ccc([N+](=O)[O-])cc1)c1[nH]ncc1Br,3%
COC(=O)c1cc(NC(=O)c2cccc(C(F)(F)F)c2)c(=O)oc1C/C=N/OCc1cccc(Cl)c1Cl,-8%
# Later entries:
SMILES,VDR inhibitor
O=c1[nH]c(=S)[nH]c2sccc12,-24%
Cc1cccc(N2N=C(C(=O)Nc3ccc(Cl)c(S(=O)(=O)N4CCOCC4)c3)CCC2=O)c1,-11%
CCN(C(=O)Cn1c(=O)n(Cc2ccccc2)c(=O)c2c1c1cc(OC)ccc1n2C)c1ccccc1,-2%
CCOc1ccc(S(=O)(=O)NCCC(=O)N2CCN(c3ccc(OC)cc3)CC2)cc1,-6%
O=c1c2c(-c3ccccc3)ccnc2[nH]n1-c1ccccc1,-4%&8%
Cc1ccc(S(=O)(=O)Nc2ccccc2F)cc1C(=O)NNC(=O)c1ccccc1O,3%
CN(Cc1c(C(=O)N(C)Cc2ccccc2)nc2ccccn12)CC1Cc2ccccc2O1 (stereo not drawn),11%
CCn1c(=O)cc(OCC(=O)NCc2cccnc2)c2ccccc21,4%
COc1cccc(-n2c(C)nc3c(cnn3-c3ccc(C)cc3)c2=O)c1,-8%
C1=Cc2ccccc2Nc2ccccc21,13%
COc1ccc(-c2nnc(SCC(=O)Nc3ncc(C)s3)n2-c2ccccc2)cc1OC,-2%
COCCn1c(Cc2ccccc2)nnc1SCc1ccc([N+](=O)[O-])cc1,6%
Fc1ccc(Oc2nc(-c3ccccc3)nnc2C(F)(F)F)cc1,9%
CN(Cc1cccc(Cl)c1Cl)C(=O)c1ccc(NC(=O)CC#N)cc1,-10%
C[C@H](CO)N1C[C@H](C)[C@@H](CN(C)C(=O)NC2CCCCC2)Oc2ccc(NC(=O)Nc3ccccc3)cc2C1=O,-3%
CCOc1ccc(N(C)S(=O)(=O)c2csc(C(N)=O)c2)cc1,6%
COc1ccc(CCN2C(=O)C(C)=C(C)C2=O)cc1OC,-14%
COc1ccc(NC(C)=O)cc1NC(=O)C1CCCN1C(=O)c1cccs1 (stereo not drawn),-12%
COc1ccc(NC(=O)Cn2c(=O)n(-c3ccccc3)c(=O)c3c4c(sc32)CCCC4)c(OC)c1,7%
CC(=O)N1CCN(c2csc3ccc(Br)cc3c2=O)CC1,19%
COCCNC(=O)c1c(N)n(-c2cccc(C)c2)c2nc3ccccc3nc12,1%

# Reformatted: results already given.
CCOc1ccc(N(C)S(=O)(=O)c2csc(C(N)=O)c2)cc1
  VDR inhibitor = 6%

COc1ccc(CCN2C(=O)C(C)=C(C)C2=O)cc1OC
  VDR inhibitor = -14%

COc1ccc(NC(C)=O)cc1NC(=O)C1CCCN1C(=O)c1cccs1 (stereo not drawn)
  VDR inhibitor = -12%
